miR-21 FLuc: raises the signal of a miR-21 reporter; HeLa miR-21 FLuc reporter, luciferase, 48 h; Potency, µM (top dose mostly 38.3 µM), for the others: at the top dose reporter change, positive = more light; 340,000 tested, under 10 active; AID 2288; active = well fitted rising curve with a large enough effect; inconclusive = small, poorly fitted or top-dose-only effect; inactive = no such curve, though single readings can be large or run the other way;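 further: % of control where 0% means no effect; miR-21 action dims this reporter so a rising signal means less miR-21 action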
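Luminescence from a firefly luciferase reporter carrying a miR-21 binding site downstream, stably expressed under a CMV promoter in HeLa cells that make miR-21 endogenously, reports miRNA modulation after 48 h compound exposure up to approximately 40uM final.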
Rango complex inh: Rango-importin beta binding inhibition | Q14974 | Rango CFP/YFP FRET sensor + importin beta, 45 min | Potency, µM (titrated, usually from 92.2 µM), for inactives: at the highest dose inhibition of complex formation | actives 0.031% (n = 340,000) | AID 540263; active = rising FRET ratio curve, often small or poorly fitted; inconclusive = mostly compound fluorescence or quenching in the first reads; inactive = flat curves in all reads;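 further: potency means the concentration at half of the fitted maximal effect; 0% = DMSO wells and 100% = buffer wells lacking importin beta; nearly all actives have a fitted effect of over 15% in size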
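Inhibition scored from the CFP 486 nm/YFP 530 nm FRET ratio 45 min after adding 0.125 microM importin beta to 50 nM Rango biosensor preincubated 5 min with compound (room temperature, PBS with DTT, Tween-20, BSA). No-importin wells as positive control.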
Rango dissoc inh: prevents RanGTP from dissociating the Rango-importin beta complex. actives 0.071% (n = 340,000). O95149+P62826. Potency, µM (top dose mostly 46.1 µM), for the others: at the top dose activity change, negative = inhibition. Biochemical FRET Rango-importin beta, RanGTP-induced dissociation; active means falling FRET ratio curve, often poorly fitted, with flat reads before Ran was added; inconclusive means other falling curves, or compound fluorescence or quenching; inactive means flat or rising ratio curve;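 further: potency means the concentration at half of the fitted maximal effect; % of control where 0% means no effect; nearly all actives have a fitted effect of over 45% in size; -100% = wells without RanGTP and RCC1; the record marks most hits as doubtful in a second field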
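Two FRET readings bracket the reaction: one 5 min after compound meets Rango–importin beta, another 45 min after RanGTP-RCC1 (0.6 uM Ran, 0.2 uM RCC1, 2 mM GTP) is added. Only the second defines inhibition.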
GLA inh pH 4.5: blocks human alpha-galactosidase A at pH 4.5; 230,000 tested, under 10 active; activity change, negative = inhibition, % at 105 µM; purified enzyme, 4-MU-alpha-Gal fluorescence, pH 4.5; P06280; inconclusive = small, poorly fitted or top-dose-only inhibition, or a rising curve; inactive = flat fitted curve, though single readings scatter; no compound was filed as active;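 further: 0% = full activity with enzyme and -100% = basal without enzyme; dose as in the result columns while the protocol names 77 µM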
Target sequence (P06280 whole entry, looked up): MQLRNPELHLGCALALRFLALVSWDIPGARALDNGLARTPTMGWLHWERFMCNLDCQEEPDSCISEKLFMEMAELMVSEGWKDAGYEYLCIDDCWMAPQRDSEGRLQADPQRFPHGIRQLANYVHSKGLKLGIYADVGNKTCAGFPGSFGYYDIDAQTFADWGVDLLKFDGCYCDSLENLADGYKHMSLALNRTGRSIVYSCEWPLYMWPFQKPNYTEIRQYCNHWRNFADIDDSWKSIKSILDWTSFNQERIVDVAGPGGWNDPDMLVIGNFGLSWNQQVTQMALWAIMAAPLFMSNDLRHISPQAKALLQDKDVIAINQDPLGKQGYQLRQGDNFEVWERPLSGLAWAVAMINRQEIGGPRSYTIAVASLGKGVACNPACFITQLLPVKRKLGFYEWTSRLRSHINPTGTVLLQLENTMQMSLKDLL
An asterisk follows results filed as active; ? = inconclusive; nt = not tested or not shown; [ ] = another dose, or the depositor's remark. Some of the compounds tested; count on the stated rates, not on these rows.

Letters: A = miR-21 FLuc; B = Rango complex inh; C = Rango dissoc inh; D = GLA inh pH 4.5
O=C(CC(NS(=O)(=O)c1ccc(Cl)cc1)c1ccco1)NC1CCCC1 (stereo not drawn)
  A: -1%	B: -0.7%	C: -13%	D: -15

Cc1nnc(Nc2ccccn2)c2ccccc12
  A: -10%	B: -4.0%	C: 10%	D: -9

NC(=O)c1ccc(-c2nnn(CC(=O)Nc3cccc(S(=O)(=O)N4CCCC4)c3)n2)cc1
  A: nt	B: 3.2%	C: 14%	D: nt

O=C(N/N=C\c1cccc(Br)c1)c1ccccc1-n1cccc1
  A: -3%	B: 4.4%	C: 11%	D: 2

CCc1c(C)sc(NC(=S)N2CCN(CC)CC2)c1C(=O)OC
  A: -2%	B: 1.8%	C: 11%	D: -24

Cn1c(SCC(=O)Nc2nc(C(C)(C)C)cs2)nnc1C1CC1
  A: 7%	B: -2.0%	C: 10%	D: -20

COc1ccccc1CN1CC(C(=O)NCc2nc3ccccc3n2C)CCC1=O (stereo not drawn)
  A: -4%	B: 1.2%	C: -2%	D: nt

CC(C)(C)[C@@H]1COC(=O)[C@@H](Cc2ccc(F)cc2)C/C=C\C[C@H](CC(=O)N(CCO)Cc2ccccc2)C(=O)N1
  A: nt	B: 2.3%	C: 1%	D: nt

O=C(C1=C[C@H](C2CC2)C[C@H](OCCCCO)O1)N1CCN(Cc2ccccc2)CC1
  A: -3%	B: -6.8%	C: 10%	D: -2

CCNc1c(NCC)c(=O)c1=O
  A: 10%	B: 3.7%	C: 3%	D: -4

COc1cccc(OCCSc2nc(N)cc(N)n2)c1
  A: -11%	B: -1.6%	C: 3%	D: -12

COc1cc(/C=C2\S/C(=N/S(=O)(=O)c3ccccc3)NC2=O)c([N+](=O)[O-])cc1OC
  A: -41%	B: ?	C: -18%	D: 1

NS(=O)(=O)c1ccc(CCNC(=O)CNCCc2ccccc2)cc1
  A: -1%	B: 0.5%	C: 6%	D: nt

O=C(Nc1ccccc1C(=O)O)c1cccc(NC(=O)c2ccccc2Cl)c1
  A: -3%	B: 2.5%	C: -10%	D: nt

O=C(O)c1cc(NC(=O)C2CCCO2)cc(NC(=O)C2CCCO2)c1 (stereo not drawn)
  A: -3%	B: 2.0%	C: -12%	D: 2

CCOC(=O)Cc1csc(NC(=O)c2c(-c3ccccc3)noc2C)n1
  A: -1%	B: 1.0%	C: -8%	D: -4

O=C(CC1(CC2=NS(=O)(=O)c3ccccc3N2)CCCC1)NCCc1ccccc1
  A: 2%	B: -0.5%	C: -10%	D: nt

CCC(CO)NCC(O)COCc1ccc2c(c1)OCO2 (stereo not drawn)
  A: -1%	B: 5.0%	C: -2%	D: 3[21.1 µM]

O=C1c2ccccc2C(=O)N1C1C(=O)N2CCSC12C(=O)OCc1ccccc1 (stereo not drawn)
  A: nt	B: 3.7%	C: -6%	D: nt

Cn1nnnc1Sc1ncnc2scc(-c3ccc(C#N)cc3)c12
  A: nt	B: -2.9%	C: -15%	D: nt

N#Cc1cc2ccccc2nc1SCc1cccnc1
  A: -24%	B: -0.6%	C: 1%	D: -1

COc1ccccc1OCCNC(=O)CCC(=O)N1CCOCC1
  A: nt	B: -3.3%	C: 1%	D: nt

O=c1ccc(S(=O)(=O)N2CCCC2)cn1Cc1nc(-c2ccc(F)cc2)no1
  A: nt	B: ?	C: -11%	D: nt

O=C(CNS(=O)(=O)c1ccc(Br)s1)N1CCCC1
  A: -3%	B: -0.3%	C: ?	D: -8

Cc1ccc(C2Nc3ccccc3NC3=C2C(=O)CC(C)(C)C3)c(O)c1 (stereo not drawn)
  A: -6%	B: 0.5%	C: -7%	D: nt

Nn1c(Cc2ccc(Br)cc2)n[nH]c1=S
  A: 1%	B: -2.3%	C: -8%	D: -16

Cc1ccc(NC(=O)CCC(=O)OCCCC(F)(F)C(F)(F)F)cc1
  A: 0%	B: -0.9%	C: -8%	D: 2

CCCC(=O)N(Cc1cc(=O)[nH]c2ccccc12)c1ccccc1OC
  A: -3%	B: 1.0%	C: 21%	D: nt

C=CCn1c(CCNC(=O)c2ccccc2F)nnc1SCc1nc2ccccc2c(=O)[nH]1
  A: 1%	B: -1.2%	C: 2%	D: -6

O=C(Cn1cc(S(=O)(=O)Cc2cccc([N+](=O)[O-])c2)c2ccccc21)N1CCOCC1
  A: 9%	B: -1.1%	C: 2%	D: nt

O=C(COc1cc(F)ccc1[N+](=O)[O-])Nc1ccc(N2CCCCC2)cc1
  A: nt	B: 4.0%	C: 11%	D: nt

Cc1cc(C)c(S(=O)(=O)Nc2ccc3c(c2)CCC3)c(C)c1
  A: ?	B: 0.1%	C: 8%	D: 5

CC(C)CNC(=O)CSc1nnc2ccccn12
  A: 0%	B: -3.2%	C: -5%	D: -6

O=S(=O)(NC1CC2CCC1C2)c1ccc2c(c1)OCCO2 (stereo not drawn)
  A: -6%	B: -0.4%	C: -1%	D: -10

Cc1cc(Br)ccc1NC(=O)CN(C)C(=O)COc1cccc2c1OC(C)(C)C2
  A: nt	B: 0.0%	C: 5%	D: nt

O=C(O)CC/C(=N/NC(=O)c1cn(-c2ccccc2)nc1-c1ccccc1)C(=O)O
  A: 1%	B: 0.6%	C: -10%	D: 1

CCOC(=O)CC1=NN(c2ccccc2)C(=O)/C1=C\c1ccc(OC)cc1OC
  A: -1%	B: 4.4%	C: -11%	D: 1

O=C(NCc1cccs1)c1cc(-c2ccc(O)cc2)on1
  A: -41%	B: 11%	C: 8%	D: 9

CS(=O)(=O)N1CCN(C(=O)Cc2ccccc2)CC1
  A: -2%	B: -1.5%	C: 0%	D: 6

CCCSc1nnc(Cn2c(=O)sc3ccccc32)n1C
  A: -3%	B: -0.1%	C: 2%	D: 0

COc1cccc(CN2CCC(C(=O)Nc3ccc(-c4cccc(C)c4)cc3)CC2)c1O
  A: 9%	B: 2.5%	C: 0%	D: nt

O=C1C2CC=CCC2C(=O)N1n1cnnc1 (stereo not drawn)
  A: 2%	B: -0.9%	C: -2%	D: 4

COc1ccc(Cc2nnc(NC(=O)c3ccccc3Cl)s2)cc1OC
  A: 3%	B: 2.2%	C: -2%	D: nt

CCN(C(=O)CN1C(=O)c2ccc([N+](=O)[O-])cc2C1=O)C1CCCCC1
  A: 9%	B: 3.2%	C: -6%	D: nt

CC(C)(C)OC(=O)NCc1ccc(NC(=O)c2nc[nH]c2C(=O)NCCNC(=O)c2[nH]cnc2C(=O)Nc2ccc(CNC(=O)OC(C)(C)C)cc2)cc1
  A: nt	B: 5.7%	C: 1%	D: nt

COc1cc(SC)ccc1C(=O)OCC(=O)N1CC(=O)Nc2ccccc21
  A: nt	B: -4.3%	C: 7%	D: nt

O=C(Nc1nc(-c2nc3ccccc3s2)cs1)C1COc2ccccc2O1 (stereo not drawn)
  A: -58%	B: -2.3%	C: -7%	D: -18

C/C(=N\NC(=O)C1CC1)c1ccc(C(C)(C)C)cc1
  A: -10%	B: 0.0%	C: -3%	D: nt

Cc1ccnc(Sc2ccc([N+](=O)[O-])cn2)n1
  A: -1%	B: -2.3%	C: -2%	D: 7

O=P(CCN1CCCCC1)(c1ccccc1)c1ccccc1
  A: 0%	B: 2.7%	C: 14%	D: 0

Look-ups from the entries so far:
Rango dissoc inh, COc1ccc(Cc2nnc(NC(=O)c3ccccc3Cl)s2)cc1OC → -2%
Rango complex inh, CCN(C(=O)CN1C(=O)c2ccc([N+](=O)[O-])cc2C1=O)C1CCCCC1 → 3.2%

Part of the list above in order of length of the SMILES, falling.
Letters: A = miR-21 FLuc; B = Rango complex inh; C = Rango dissoc inh; D = GLA inh pH 4.5
O=C(O)CC/C(=N/NC(=O)c1cn(-c2ccccc2)nc1-c1ccccc1)C(=O)O
  A: 1%	B: 0.6%	C: -10%	D: 1

C=CCn1c(CCNC(=O)c2ccccc2F)nnc1SCc1nc2ccccc2c(=O)[nH]1
  A: 1%	B: -1.2%	C: 2%	D: -6

COc1cccc(CN2CCC(C(=O)Nc3ccc(-c4cccc(C)c4)cc3)CC2)c1O
  A: 9%	B: 2.5%	C: 0%	D: nt

CCOC(=O)CC1=NN(c2ccccc2)C(=O)/C1=C\c1ccc(OC)cc1OC
  A: -1%	B: 4.4%	C: -11%	D: 1

C/C(=N\NC(=O)C1CC1)c1ccc(C(C)(C)C)cc1
  A: -10%	B: 0.0%	C: -3%	D: nt

O=C(NCc1cccs1)c1cc(-c2ccc(O)cc2)on1
  A: -41%	B: 11%	C: 8%	D: 9

Cc1ccnc(Sc2ccc([N+](=O)[O-])cn2)n1
  A: -1%	B: -2.3%	C: -2%	D: 7

Next part:
Letters: A = miR-21 FLuc; B = Rango complex inh; C = Rango dissoc inh; D = GLA inh pH 4.5
CC1CCN(c2ccc([N+](=O)[O-])c(SCCO)c2)CC1
  A: 11%	B: -1.4%	C: 6%	D: -22

COc1ccc(OC)c(NC(=O)Cn2c(-c3ccc(Cl)cc3)noc2=O)c1
  A: -13%	B: -0.6%	C: -1%	D: -5

Cc1nc(C(=O)Nc2ccc(F)cc2)nn1-c1ccc([N+](=O)[O-])cc1
  A: -14%	B: -3.6%	C: -2%	D: 2

N#Cc1ccc(Oc2ccc(/C=N/O)cn2)cc1
  A: -9%	B: 0.1%	C: 1%	D: 5

Oc1ccccc1OCc1nc2ccccc2s1
  A: -57%	B: 0.2%	C: -2%	D: -2

CCOC(=O)/C(=N/Nc1ccccc1)Sc1nnc(CCc2ccccc2)n1-c1ccccc1
  A: -1%	B: -2.3%	C: 3%	D: 2

C=CCN1C(=O)/C(=C/c2ccc(OC)cc2)S/C1=N/c1nccs1
  A: -5%	B: -1.4%	C: 0%	D: 2

COc1cc2nc(N(CCCN(C)C)C(=O)c3ccc(C(=O)c4ccccc4)cc3)sc2cc1OC
  A: nt	B: 3.8%	C: -1%	D: nt

CC(=O)c1c(C)[nH]c(C(=O)Nc2ccccc2Cl)c1C
  A: -22%	B: 0.8%	C: 1%	D: nt

Cc1c(C(=O)N2CCCC2)c(S(=O)(=O)NCC(C)c2ccccc2)c(C)n1C (stereo not drawn)
  A: 2%	B: 0.4%	C: -15%	D: nt

Cc1ccc2c(c1)NC(=O)c1cccc([N+](=O)[O-])c1CO2
  A: 0%	B: nt	C: nt	D: -14

Cc1nnc(SCC(=O)NN2C(=O)NC3(CCCCC3)C2=O)s1
  A: -2%	B: 0.5%	C: 51%	D: 0

CCn1c(Cc2ccccc2)nnc1SCC(=O)N1CCCCC1
  A: -7%	B: 1.4%	C: 0%	D: 3

C#CCSc1nnc(-c2ccc(OC)cc2)o1
  A: -15%	B: 0.2%	C: 4%	D: -18

COc1ccc(C)cc1S(=O)(=O)N(CC(=O)N1CCCC1)c1ccc(C)cc1
  A: nt	B: -3.1%	C: -1%	D: nt

CC1(C)CC(NS(=O)(=O)c2cccc3ccccc23)CC(C)(C)N1
  A: -4%	B: -4.6%	C: -18%	D: nt

CCCCCCCCS(=O)c1sc2nc(C)cc(C)c2c1N (stereo not drawn)
  A: 1%	B: 0.4%	C: 1%	D: 0

NC(=O)c1cccnc1Oc1ccc(Cl)cc1Cl
  A: -25%	B: -0.6%	C: 0%	D: -17

CCc1ccc(NC(=O)CSc2nnc(Cc3cccn3C)n2-c2ccc(F)cc2)cc1
  A: 1%	B: 0.0%	C: -4%	D: -25

C=CCn1c(SCCC)nc(O)cc1=O
  A: -1%	B: 4.2%	C: -11%	D: 3

CCOC(=O)N1CCN(C(=O)Cn2c(C)cc3ccccc3c2=O)CC1
  A: 4%	B: 1.3%	C: -11%	D: 2

CCCOC(=O)c1ccc(NC(=O)c2ccccc2OC)cc1
  A: -38%	B: -2.5%	C: 0%	D: -12

CCOC(=O)c1cccc(NC(=S)N2CCN(c3ncc4c(=O)c(C(=O)O)cn(CC)c4n3)CC2)c1
  A: -5%	B: 3.1%	C: 0%	D: ?

CCCSc1nnc(CN2CCOCC2)n1C
  A: -2%	B: 3.8%	C: -1%	D: 8

3 successive entries from above, for reference:
Letters: A = miR-21 FLuc; B = Rango complex inh; C = Rango dissoc inh; D = GLA inh pH 4.5
CC1CCN(c2ccc([N+](=O)[O-])c(SCCO)c2)CC1
  A: 11%	B: -1.4%	C: 6%	D: -22

COc1ccc(OC)c(NC(=O)Cn2c(-c3ccc(Cl)cc3)noc2=O)c1
  A: -13%	B: -0.6%	C: -1%	D: -5

Cc1nc(C(=O)Nc2ccc(F)cc2)nn1-c1ccc([N+](=O)[O-])cc1
  A: -14%	B: -3.6%	C: -2%	D: 2
